# NPYLR7 ag – activates Aedes aegypti NPYLR7 receptor. HEK293T NPYLR7/Galpha15, GCaMP6s calcium fluorescence. activation, % at 10 µM. 270,000 compounds, 0.15% hits; in the data active = activation above about 40%;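 also: 0% = vehicle and 100% = reference agonist at the receptor; some compounds past the cut are filed as inactive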
# NPYLR7 ag max-min – recorded beside NPYLR7 ag, whose call it bears; activation, %; measured here: Max-Min RFU normalised activation; some inactives read as strong as hits;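 span of the calcium signal over five minutes; 0% = vehicle and 100% = native peptide agonist; compound fluorescence can raise it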
# * hit, by the source's call; & = joins results of further samples. This is a subset. The share of hits here may be higher or lower than overall.
SMILES,NPYLR7 ag,NPYLR7 ag max-min
CCOC(=O)N1CCN(C2CCCN(C(=O)CCc3cnn(C)c3)C2)CC1 (stereo not drawn),2,-1
COC(=O)c1cccc(CSc2nnc(-c3ccc([N+](=O)[O-])cc3)n2-c2ccccc2)c1,4,7
CC(NC(=O)CN(C)Cc1ccccc1Br)c1ccco1 (stereo not drawn),7,6
CCOCc1cc(CN2CCC(Cc3ccccc3)(C(=O)OCC)CC2)ccc1OC,9,-5
Cc1cc(C)c(C(=O)NC(c2cccnc2)c2ccc(C)c(C)c2)c(=O)[nH]1 (stereo not drawn),3,1
CCCn1c(=S)n(CN(C)C2CCS(=O)(=O)C2)c2cc(Cl)ccc21 (stereo not drawn),-1,0
Cc1cccc(-c2nnc(SC(C(N)=O)c3ccccc3)o2)c1 (stereo not drawn),5,7
COCCN(C(=O)Nc1ccc(C)c(Cl)c1)C1CCCC1,3,1
NC(=O)c1ccc(NC(=O)CCCn2nc(-c3ccc(Cl)cc3)ccc2=O)cc1,4,5
OCC1(O)CCCN(Cc2ccc(-c3ccn[nH]3)s2)CC1 (stereo not drawn),0,-8
CCSc1nc2sc3c(c2c(=O)n1CC)CCC(C)C3 (stereo not drawn),4,6
CC1SCCN1S(=O)(=O)c1ccc(Br)cc1 (stereo not drawn),2,-2
NC(=O)c1nnc2n1CCN(Cc1cc3ccccc3o1)C2,7,4
CCOc1cnn(C)c(=O)c1Nc1cccc(C(=O)NCc2cccnc2)c1,-1,11
O=C1CCCc2ccc(NC(=O)C3CCCN(C(=O)C4CC4)C3)cc21 (stereo not drawn),-5,-7
OCc1nc2ccccc2n1CCOc1cccc2ccccc12,0,-4
CO[C@H]1CN(c2ncnc3sccc23)CC[C@H]1N,0,-5
COc1ccccc1Oc1c(CN(CC(O)COCc2ccco2)C(C)C)c(C)nn1-c1ccccc1 (stereo not drawn),8,11
CN(C)CC[C@@H](c1ccc(Br)cc1)c1ccccn1,-6&0,-10&1
O=C(NC1CCCC1)N1C2CCC(O)(CC2)C1CN1CCOCC1 (stereo not drawn),18,28
Cc1ccc(C2=NCN(c3ccc(C(=O)O)cc3)C(=S)N2)cc1,-1,-3
Cc1cc(=O)n(C(N)=S)[nH]1,-3,-11
COc1ccc(OC)c(C2CCCN2Cn2ncn(-c3ccccc3)c2=S)c1 (stereo not drawn),5,1
Cc1ccc2nc(NC(=O)CSc3nc(=O)n(CCN(C)C)c4c3CCCC4)sc2c1,-4,-2
COc1ccc(Cc2nc3ccc(C(=O)N4CCOCC4)cc3o2)cc1OC,-1,-5
COCc1cc(N(C)Cc2ccccc2)nc(SCc2cccc(C(=O)NC3CC3)c2)n1,4,8
O=[N+]([O-])c1cccc(C2Oc3ccccc3C3CC(c4ccccc4)=NN32)c1 (stereo not drawn),2&-16,1&-21
O=c1[nH]c(=S)[nH]c2sc3c(c12)CCC3,1,-1
Cc1c(C(=O)NCc2cccc(C(F)(F)F)c2)sc(=O)n1Cc1ccc(F)cc1,1,-2
CCN1CCN(c2nc(Nc3ccc(C)c(C)c3)c3cnn(-c4ccccc4)c3n2)CC1,1,0
CC12CCC(c3c(C(F)(F)F)n[nH]c31)C2(C)C (stereo not drawn),0,54
C(=Cc1ccccc1)CSc1nc2ccccc2o1,2,9
O=C(NCCNc1ccc(Nc2ccccn2)nn1)Nc1ccc(F)cc1,7,6
CCOc1c(Br)cc(C(=O)N2CCc3ccccc32)cc1OC,4,5
CCOc1ccc(-c2cc3c(N4CCC(C(=O)NCc5ccc(OC)cc5)CC4)nccn3n2)cc1,-3,-9
CCOC(=O)CSc1ncnc2c1nnn2Cc1ccc(Cl)cc1,15,11
CCc1nn2c(=O)cc(COC(=O)Cc3noc4ccccc34)nc2s1,7,3
O=S(=O)(CCc1ccccc1)N1CCN(c2ccc3nncn3n2)CC1,1,6
Cc1cc(N2CCCCC2)nc(Nc2ccc(NC(=O)C(C)Oc3ccccc3)cc2)n1 (stereo not drawn),13,4
COCCCN(Cc1cccn1Cc1cccc(F)c1)C(=O)Nc1ccc(Cl)cc1,-2,6

# Full records, quoted from the list.
# Profile of `Cc1cc(N2CCCCC2)nc(Nc2ccc(NC(=O)C(C)Oc3ccccc3)cc2)n1` (stereo not drawn) → NPYLR7 ag: 13; NPYLR7 ag max-min: 4
# Profile of `Cc1ccc2nc(NC(=O)CSc3nc(=O)n(CCN(C)C)c4c3CCCC4)sc2c1` → NPYLR7 ag: -4; NPYLR7 ag max-min: -2

# (list continues)
SMILES,NPYLR7 ag,NPYLR7 ag max-min
COCC(=O)N1CCC(Oc2ccc(C(=O)N3CCC(Cc4ccccc4)CC3)cc2)CC1,19,8
Cc1noc(C)c1CN(C)CC(O)c1cccc(F)c1 (stereo not drawn),-5,-5
Nc1nc(SCC(=O)c2ccc(Cl)cc2Cl)nc(C2CCC2)n1,5,8
Cc1cccc(CN(C(=O)c2ncoc2C2CCCO2)C2CC2)c1 (stereo not drawn),0,-1
CNC(=O)[C@@H]1C[C@H]2CN(Cc3ccc(OC)cc3)C(=O)c3cccc(c32)N1C(=O)Cc1cccs1,0,9
CCN(C)c1cc(Oc2ccc(F)cc2F)ncn1,-8,-5
O=C(c1cccc(S(=O)(=O)NCC2CC2)c1)N1CCCC1c1ccncc1 (stereo not drawn),5,2
CCNc1nc(CC)nc2ccccc12,16,13
CCOC(=NCCCc1ccccc1)NC(=O)c1cccc(OC)c1,-3,-2
CC1CN(C(=O)c2cc3c(=O)n4ccccc4nc3n2C)CC(C)O1 (stereo not drawn),7,4
COc1cc(-c2ccnc(N3CCN(C(=O)c4ccc(F)c(C)c4)CC3)n2)cc(OC)c1OC,-7,-8
CCc1c(C)sc2nc(SCC#N)n(-c3cccc(C)c3)c(=O)c12,3,17
O=C(Cc1csc(-c2ccccc2)n1)NNC(=O)c1cc(-c2ccccn2)nc2ccccc12,-3,-7
COc1ccc(C)c2sc(N(CCCn3ccnc3)C(=O)c3ccc(Cl)s3)nc12,-14,-19
CC(C)NC[C@H](O)COc1cccc2ccccc12,-10&-4&2,-12&-12&2
O=C(Nc1ccc(-c2cn3c(n2)CCCC3)cc1)c1ccccn1,5,5
Cc1nc(-c2cccc(C(F)(F)F)c2)nc(N2CCN(C(=O)C(C)(C)CCl)CC2)c1Cc1ccccc1,22,20
CC(=O)CCc1oc2c(Br)cc(C)cc2c1-c1ccc(C)o1,-9,-16
Cc1nc2ccc(C(=O)N(C)C(C)C)cn2c1N(C)C(=O)CCc1ccccc1,17,13
NC(=NC1C2CC3CC(C2)CC1C3)Nc1ccc(I)cc1 (stereo not drawn),43*,41*
Cc1ccc(Cl)c2sc(N3CCOCC3)nc12,3,2
CCCCc1cc(=O)[nH]c(-c2ccc(CN3CCC(F)(F)CC3)cc2)n1,0,1
O=C(CSc1ncnc2c1nnn2-c1ccc(F)cc1)OCc1ccccc1,-2,22
CCOc1cccc2sc(=NC(=O)CCS(=O)(=O)c3ccc(F)cc3)n(C)c12,0,-4
CC(C)(C)c1ccc(S(=O)(=O)NC2CCS(=O)(=O)C2)cc1 (stereo not drawn),0,3
Cc1ccc(Nc2oc3c(c2-c2cccc(F)c2)c(=O)n(C)c(=O)n3C)c(C)c1,-1,-4
CC(=O)Nc1cccc(C(=O)N(C)Cc2sccc2C)c1,-2,-3
COc1ccccc1/C=C1/SC(=Nc2ccccc2Cl)NC1=O,-6,-10
CCCCCN1CCc2ccccc2OCC(=O)N(C)[C@@H](Cc2ccc(OCC(=O)O)cc2)C1=O,14,22
CC(CC12CC3CC(CC(C3)C1)C2)NCc1ccccc1O (stereo not drawn),-11,-19
COc1ccc(Br)c(C(=O)NC2CCCCCCC2)c1,4,-1
COc1ccc2c(c1)CCCN2C(=O)C1CCN(S(=O)(=O)c2ccc(C)c(C)c2)CC1,0,1
CCCSCCNC(=O)c1c(O)cccc1O,-3,-5
Cc1csc(C(C#N)=Cc2cccc(F)c2)n1,4,2
CC(/C=C/c1cccc(Oc2ccc(F)cc2)c1)N(O)C(N)=O (stereo not drawn),7,-8
Cc1ccc(P(=Nc2c(Cl)cccc2Cl)(N2CCCC2)N2CCCC2)o1,5,4
Cc1nonc1C1CCCN1C(=O)CC1c2ccccc2CCc2ccccc21 (stereo not drawn),3,-1
CC1SC(c2cccs2)N(CCN(C(=O)c2ccco2)C(C)C)C1=O (stereo not drawn),5,11
CCN(CC)c1ccc(/C=N\NC(=O)COc2nc(C)c(Br)c(COC)c2C#N)c(O)c1,24,16
CNC(=O)NC(=O)CCSc1ccc(F)c(Cl)c1,8,7
CCNc1ccnc(N2CCC(C(=O)N3CCc4ccccc4C3)CC2)n1,-1,3
O=C1CSC2(C(=O)Nc3ccccc32)N1c1ccc(Cl)c(Cl)c1 (stereo not drawn),-16,-23
CCOc1ccc2c(c1)=NC1(N=2)C(=O)N(C)c2ccccc21 (stereo not drawn),-15,-22
CC(C)SC(NC(=O)OCc1ccccc1)C(=O)NCCc1cccc(Cl)c1 (stereo not drawn),0,-2
Fc1ccccc1C1c2[nH]c3ccccc3c2CCN1Cc1ccccn1 (stereo not drawn),-1,-3
COc1ccc(-c2csc(-n3[nH]c(C)c(N=Nc4cc([N+](=O)[O-])ccc4C)c3=O)n2)cc1,-3,-7
CCc1cc(N2CCN(CC)CC2)nc(SCc2cccc(C(=O)NC3CC3)c2)n1,9,-1
Cn1nnc2c(N3CCN(C(=O)C4CCCCC4)CC3)ncnc21,1,16
CCCCCCC(=O)Nc1nnc(SCc2cc(C)cc(C)c2)s1,14,21
COc1ccccc1-n1c(SCc2ccc(C(=O)O)cc2)nnc1-c1ccc([N+](=O)[O-])cc1,-5,-11
COc1ccc(S(=O)(=O)NCC2CCCN(C(=O)c3ccccc3N(C)C)C2)cc1 (stereo not drawn),3,0
O=C(COc1ccc(F)cc1Cl)Nc1cccc2nsnc12,0,-2
COCCn1cc(NC(=O)Nc2cccc(C)n2)c2ccccc21,15,9
C/C(=N\n1c(-c2cccc(Cl)c2)csc1=NC(C)C)c1ccc(O)cc1,-1,-2
CCC(=O)N1CCN=C1SCc1ccc([N+](=O)[O-])cc1,2,-2
COc1ccccc1NC(=O)c1cc(NCc2ccccc2)ccn1,5,1
CC(C)c1nc(CN(C)C(=O)CC2C(=O)NCCN2Cc2ccccc2)no1 (stereo not drawn),4,1
CC(C)c1nnc(NC(=O)c2cccs2)s1,-2,-4
CC(=O)NCCNC(=O)C1(C)Cc2c(-c3ccc(N(C)C)cc3)ccnc2O1 (stereo not drawn),-14,-14
CCCOC(=NC(C)CCCN(CC)CC)NC(=O)c1ccc(Cl)c(Cl)c1 (stereo not drawn),-5,-2

# Remaining list, next part
SMILES,NPYLR7 ag,NPYLR7 ag max-min
COc1ccc(C(=O)NCCn2cc(SCC(=O)Nc3cccc(C)c3)c3ccccc32)cc1,-3,-5
Cc1nc([N+](=O)[O-])c(Br)n1Cc1ccccc1,-1,-2
O=C(CNS(=O)(=O)c1cccs1)N1CCCC2(CCNCC2)CC1,0,1
Cc1[nH]c(=S)c(C#N)c(-c2ccco2)c1C(=O)N(C)C,-2,-3
Cc1cc(C(=O)O)cc(S(=O)(=O)NNC(=O)C(C)C)c1Cl,0,-2
Cc1nc(Cn2nc(C3CCCNC3)n(-c3ccccc3)c2=O)co1 (stereo not drawn),26,12
CCc1nc2ccc(C(=O)NCC3CCCCC3)cn2c1N(C)Cc1nccn1C,-7,-9
O=C(c1ccccc1C(F)(F)F)N1CCC(c2nc(-c3c(Cl)cccc3Cl)no2)CC1,8,4
CCCCc1ccc(S(=O)(=O)c2cnc(SCC(=O)NCc3ccc(F)cc3)[nH]c2=O)cc1,2,-5
O=C1CC(NS(=O)(=O)N2CCCCC2)CN1CCCc1ccccc1 (stereo not drawn),5,4
O=C(CCl)N1CCN(Cc2cccc3ccccc23)CC1,0,-4
CC(NC(=O)Cn1nc(C(=O)N2CCN(C)CC2)cc1-c1cccs1)c1ccccc1 (stereo not drawn),-9,-12
NC1=NC(c2c3ccccc3cc3ccccc23)n2c(nc3ccccc32)N1 (stereo not drawn),8,6
CN1C(=O)N(Cc2cccnc2)C(=O)C12CCN(Cc1cnc(-c3ccccc3)s1)CC2,5,-6
OC(CN(c1nccc(-n2cccn2)n1)C1CC1)c1ccc(F)cc1 (stereo not drawn),3,3
Cn1c(Br)nc2c1c(=O)[nH]c(=O)n2C,-1,6
COc1ccc(C(=O)N2CCN3CCNC(=O)C3C2)o1 (stereo not drawn),0,3
Cn1cc(S(=O)(=O)N2CCN(C(=O)c3cccnc3)CC2)cc1C(N)=O,3,1
Cc1cccc(CC2=CN3CCS(=O)(=O)N=C3S2)c1,-3,-4
CCCNC(=O)N1CCN(c2cccc(Br)c2)C(=O)C1C (stereo not drawn),0,9

# Of the compounds above, 16 have an aryl thioether with sulfur outside any ring:
SMILES,NPYLR7 ag,NPYLR7 ag max-min
COC(=O)c1cccc(CSc2nnc(-c3ccc([N+](=O)[O-])cc3)n2-c2ccccc2)c1,4,7
Cc1cccc(-c2nnc(SC(C(N)=O)c3ccccc3)o2)c1 (stereo not drawn),5,7
CCSc1nc2sc3c(c2c(=O)n1CC)CCC(C)C3 (stereo not drawn),4,6
Cc1ccc2nc(NC(=O)CSc3nc(=O)n(CCN(C)C)c4c3CCCC4)sc2c1,-4,-2
COCc1cc(N(C)Cc2ccccc2)nc(SCc2cccc(C(=O)NC3CC3)c2)n1,4,8
C(=Cc1ccccc1)CSc1nc2ccccc2o1,2,9
CCOC(=O)CSc1ncnc2c1nnn2Cc1ccc(Cl)cc1,15,11
Nc1nc(SCC(=O)c2ccc(Cl)cc2Cl)nc(C2CCC2)n1,5,8
CCc1c(C)sc2nc(SCC#N)n(-c3cccc(C)c3)c(=O)c12,3,17
O=C(CSc1ncnc2c1nnn2-c1ccc(F)cc1)OCc1ccccc1,-2,22
CNC(=O)NC(=O)CCSc1ccc(F)c(Cl)c1,8,7
CCc1cc(N2CCN(CC)CC2)nc(SCc2cccc(C(=O)NC3CC3)c2)n1,9,-1
CCCCCCC(=O)Nc1nnc(SCc2cc(C)cc(C)c2)s1,14,21
COc1ccccc1-n1c(SCc2ccc(C(=O)O)cc2)nnc1-c1ccc([N+](=O)[O-])cc1,-5,-11
COc1ccc(C(=O)NCCn2cc(SCC(=O)Nc3cccc(C)c3)c3ccccc32)cc1,-3,-5
CCCCc1ccc(S(=O)(=O)c2cnc(SCC(=O)NCc3ccc(F)cc3)[nH]c2=O)cc1,2,-5
